# PABP polyA inh – PABP-poly(A) binding inhibition | inhibition, % at 35 µM | hit rate 1% among 290,000 | PABP-poly(A) RNA binding, fluorescence polarization | AID 2014 | P11940;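 active = 50% or more with normal probe brightness, or confirmed in later tests; inconclusive = above 50% with abnormal brightness, or retests that disagree; inactive = below 50% or failed in later tests; about a fifth of its hits are not listed in these tables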;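 also: calls also rest on retests at 20 µM and on dose response follow-up; controls were probe without protein and protein plus probe with vehicle; some compounds called inactive have numbers as strong as hits; many hits fall short of the cut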
# Target sequence (P11940 whole entry, looked up): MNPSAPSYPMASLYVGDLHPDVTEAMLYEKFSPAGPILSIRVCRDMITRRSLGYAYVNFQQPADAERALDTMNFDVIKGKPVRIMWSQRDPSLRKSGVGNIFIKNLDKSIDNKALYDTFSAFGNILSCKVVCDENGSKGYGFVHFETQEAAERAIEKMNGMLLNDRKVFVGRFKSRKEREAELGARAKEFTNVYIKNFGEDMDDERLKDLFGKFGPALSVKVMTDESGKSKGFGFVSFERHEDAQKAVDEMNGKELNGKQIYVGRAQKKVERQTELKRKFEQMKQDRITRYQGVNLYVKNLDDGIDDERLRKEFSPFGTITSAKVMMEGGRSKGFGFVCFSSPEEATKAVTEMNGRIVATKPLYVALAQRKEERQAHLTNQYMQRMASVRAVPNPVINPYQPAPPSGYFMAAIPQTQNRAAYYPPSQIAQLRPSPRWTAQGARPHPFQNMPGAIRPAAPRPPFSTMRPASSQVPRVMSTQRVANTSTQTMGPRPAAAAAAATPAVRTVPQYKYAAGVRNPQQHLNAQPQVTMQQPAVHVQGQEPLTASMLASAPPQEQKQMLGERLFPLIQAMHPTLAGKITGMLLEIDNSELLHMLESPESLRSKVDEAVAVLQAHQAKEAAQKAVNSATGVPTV
# MT1-MMP act inh – MT1-MMP (human) activation inhibition | HT1080 RFP-PRO-GFP cells, GFP/RFP ratio fluorescence, overnight; percent of plate control window, DMSO zero | GFP/RFP ratio change, % at 20 µM | hit rate 0.061% among 360,000 | AID 651647;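 active = GFP/RFP ratio change of at least 30% with cell ATP level not reduced by more than half and red fluorescence within 50% of control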; also: strong numbers were not always called active
#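 Assay system: HT1080 RFP-PRO-GFP cells | Dosing: 20 µM single dose, 1% DMSO | Incubation: Cells overnight before dosing, compound overnight, 37 °C, 5% CO2 | Evaluation: GFP/RFP fluorescence ratio | Control set: DMSO-only wells and HT1080 RFP-L50D-GFP cell wells as references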
# eIF4H inh – inhibitors of RNA binding by human eIF4H | eIF4H fluorescence polarization binding assay | hit rate 0.94% among 290,000 | inhibition, % at 35 µM | Q15056;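 active = 50% or more with normal probe brightness, or confirmed in later tests; inconclusive = above 50% with abnormal brightness, or retests that disagree; inactive = below 50% or failed in later tests; about a fifth of its hits are not listed in these tables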;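 also: calls also rest on retests at 20 µM and on dose response follow-up; 0% = protein and probe with vehicle and 100% = probe without protein; strong numbers were not always called active; many hits fall short of the cut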
# CSC inhib – blocks cancer stem cells; cancer stem cell-like cells viability, luminescence; hit rate 1.1% among 300,000; inhibition, % at 7.5 µM;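 active = mean at 75% or more and at least half the replicates too; inconclusive = mean and replicates disagree; tested in HMLE shEcad cells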;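 also: 0% = median of negative and 100% = median of positive control wells; the first replicate is given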
# UUG fidelity – yeast start codon fidelity modulation; activity score, % at 18.7 µM; hit rate 0.13% among 350,000; S. cerevisiae UUG-firefly luciferase reporter, luminescence/redox ratio;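 active = replicate mean at a twofold rise or more, about +100% in these data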;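 also: firefly luciferase made from a UUG start codon reports start codon fidelity; reporter light over untreated wells divided by growth signal over untreated wells; some hits fall short of that in this replicate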
# Rce1 inhib – yeast Ras-converting enzyme inhibition. Q03530. yeast membranes, quenched prenylated peptide cleavage fluorescence. calls only. hit rate 0.27% among 290,000. AID 2563;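 active = fall in fluorescence gain of 50% or more versus controls, with final raw signal at or below 3038400; inconclusive = same 50% fall but final raw signal above 3038400; inactive = fall in fluorescence gain under 50%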;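 also: plate controls were neutral control wells for no effect and wells lacking membranes for full effect; tested at 10 µM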
# Env fusion inh – blocks HIV Env-driven cell-cell fusion | HeLa-JRFL Env/CEM21 cell fusion, luciferase | inhibition, % at 12.3 µM | hit rate 1.1% among 360,000;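 active = mean replicate inhibition score of at least 50 and every replicate individually at or above 50; inconclusive = only one of the two criteria met; inactive = mean below 50 and not all replicates reaching 50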;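 also: 0% = plate neutral controls and 100% = maraviroc near 300 nM; one replicate is shown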
# eIF4H inh retest – second read-out of eIF4H inh, no call of its own (marks repeat the call); inhibition, %; compound at 20 µM; confirmation average;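 mean of two retest wells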
# PABP polyA inh retest – further read-out of PABP polyA inh, marked with its call; inhibition, %; compound at 20 µM; confirmation repeats;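 mean of two retest wells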
# MT1-MMP act inh RFP – further read-out of MT1-MMP act inh, marked with its call; RFP signal change, %; measured here: RFP expression control read;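 0 = vehicle wells; hits needed this value within 50% of zero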
# An asterisk follows results filed as active; i = inactive; u = inconclusive; x = no result given; & = joins results of further samples.
SMILES,PABP polyA inh,MT1-MMP act inh,MT1-MMP act inh RFP,eIF4H inh,CSC inhib,UUG fidelity,Rce1 inhib,Env fusion inh,others
CCOC(=O)C1(C)C=C(Nc2ccc(O)cc2)C(=O)N1c1ccc(O)cc1 (stereo not given),16,6,4,92,-6,-7,i,15,eIF4H inh retest=-10;PABP polyA inh retest=11
O=C1NN(c2ccc(Br)cc2)C(=O)/C1=C\c1ccc(O)cc1O,19,-12,-2,2,2,-25,i,1,
O=C(/C=C/c1cccc(Cl)c1)N1CCC(Cc2ccccc2)CC1,-4,0,2,7,59,x,i,5,
Cc1onc(-c2c(F)cccc2Cl)c1C(=O)N1CCCc2ccccc21,-7,-1,-2,3,0,x,i,x,
N#Cc1ccc(C(=O)Nc2nnc(-c3ccco3)o2)cc1,-54,-2,-4,3,10,x,i,-3,
Cc1ccccc1N1CCN(c2ncnc3scc(-c4cccs4)c23)CC1,-5,1,-10,-3,23,-25,i,48,
COc1ccc(S(=O)(=O)N(CC(=O)NCc2ccco2)c2ccccc2)cc1OC,-8,-2,-3,-8,-15,-15,i,-24,
CCCNC(=O)/C=C/c1ccc(S(=O)(=O)Nc2ccccc2OC)cc1,75,0,-3,-10,-8,12,x,-16,eIF4H inh retest=-7;PABP polyA inh retest=8
Cc1ccc(NC(=O)CN2C(=O)NC(C)(CC(C)C)C2=O)cc1F (stereo not given),x,2,-1,x,-8,-11,x,-25,
COc1ccc(-n2cc(-c3ccc(Cl)cc3)[nH]c2=S)cc1,1,-3,1,-4,-21,x,i,-41,
COc1ccc(C)cc1N(C(=O)c1ccccc1)c1nc2ccccc2s1,3,-8,-3,-14,-16,x,i,-64,
CC(=O)c1c(C)[nH]c(C(=O)CSc2nnc(-c3cccs3)n2Cc2ccccc2)c1C,-16,-11,-11,-4,4,x,i,40,
CCCn1c(C)cc(/C=C(\C#N)C(=O)OCC(=O)Nc2cccc(OC)c2)c1C,4,3,-2,50,2,x,i,x,
CCSc1nnc2c3cc(CC)ccc3n(C)c2n1,-2,3,0,-5,-1,1,i,x,
COc1cccc(C2=NOC(C(=O)Nc3cccnc3)C2)c1 (stereo not given),5,15,3,-2,-6,x,i,12,
CC1CN(c2oc(-c3cccs3)nc2C#N)CC(C)O1 (stereo not given),-1,-3,-1,6,6,x,i,x,
O=C(NCc1ccccc1F)c1ccc(S(=O)(=O)Nc2cccc(C(F)(F)F)c2)cc1,24,-4,-4,-2,-21,-9,i,11,
CCn1c2ccc(F)cc2c2nnc(SCCN3CCOCC3)nc21,6,1,2,-5,-4,8,i,16,
Cc1cnc(C(=O)Nc2nc(-c3ccccc3)cs2)cn1,11,2,1,2,8,x,i,1,
N#C/C(=N\O)c1nc(-c2ccccc2)cs1,10&-9,-1&-2,0&-1,-5&-4,-2&2,8&-16,i,-136&-67,
Cc1ccccc1-n1ccnc1SCC(=O)O,6,-6,-13,-2,0,-9,i,x,
COc1ccccc1CNC(=O)c1cc(-c2cc(Cl)ccc2C)n[nH]1,x,-5,-9,x,x,-31,x,-4,
CC1CCC(NC(=O)CCN2C(=O)C3CC=CCC3C2=O)CC1 (stereo not given),x,-2,-1,x,1,-15,x,x,
CCn1c(=O)c(C(=O)CN(C)Cc2cccc(OC)c2OC)c(N)n(Cc2ccccc2)c1=O,18,1,6,28,-4,x,i,x,
COc1ccccc1C1SCCN1S(=O)(=O)c1ccccc1 (stereo not given),x,-1,0,x,x,0,x,-23,
SMILES,PABP polyA inh,MT1-MMP act inh,MT1-MMP act inh RFP,eIF4H inh,CSC inhib,UUG fidelity,Rce1 inhib,Env fusion inh,others
CC1CCC2C(=O)N(c3ccccc3OC(=O)c3ccccc3)C(=O)C2C1 (stereo not given),-2,-26,-7,-9,-11,-11,i,-53,
O=C(COn1nnc2ccc(C(F)(F)F)cc21)Nc1nnc(-c2ccccc2)o1,-2,2,0,17,24,-20,i,x,
O=S(=O)(c1ccc(F)cc1)N1CCN(c2ccccc2)CC1,3,11,4,-7,-13,5,i,-17,
COc1ccc(NC(=O)C2CCCN(S(=O)(=O)c3ccccc3)C2)c(OC)c1 (stereo not given),-2,2,-1,-9,-25,-3,i,4,
CC(=O)Nc1ccc(NC(=O)C(C)OC(=O)C(C)SCC(=O)Nc2ccc(F)cc2)cc1 (stereo not given),x,2,4,x,3,-12,i,2,
COc1ccc(C(=O)NCC(O)COc2ccc(C(C)(C)C)cc2)cc1[N+](=O)[O-] (stereo not given),3,x,x,0,55,x,i,x,
COc1ccc(OC)c(C2C(C(=O)c3ccco3)=C(O)C(=O)N2CCN2CCOCC2)c1 (stereo not given),3,-5,3,-3,-15,-7,x,8,
O=C(NC[C@@H]1CC[C@@H](Cc2ccc(-c3ccccc3)cc2)O1)Nc1ccc(Br)cc1,x,-25,-37,x,x,-6,x,33,
O=C(NNC(=O)c1n[nH]c(=O)c2ccccc12)c1ccc(Br)cc1,1,4,5,-8,-6,-14,i,-4,
Cc1occc1C(=O)Nc1cc(C(F)(F)F)ccc1Cl,-12,-4,2,1,1,-25,i,-21,
N=c1ccn2c(n1)O[C@H]1[C@H](O)[C@@H](CO)O[C@H]12,-1,-4,0,-10,30,-20,i,24,
Cc1sc(NC(=O)CSc2nnc(N)s2)c(C#N)c1C,9,2,-1,-7,8,10,i,3,
O=C1CCC(=O)N1OCCCOc1ccccc1,-10,0,2,-13,-11,-15,i,-10,
O=C(Cc1ccccc1[N+](=O)[O-])NC1CCN(Cc2ccccc2)CC1,-5,3,5,2,x,-7,i,-1,
O=[N+]([O-])c1ccc2c(c1)nc1n2CCSC1,-2,-3,1,4,-17,-29,i,-13,
N#Cc1cc2c(nc1SCc1ccccc1)CCCC2,2,-2,-1,7,9,x,i,2,
C=CCn1c(CCNC(=O)c2cccs2)n[nH]c1=S,-8,3,4,-1,-10,x,i,1,
COc1cccc(-c2nnc(SCC3CNC(=O)O3)n2-c2ccc(Cl)cc2)c1 (stereo not given),0,1,-1,-7,7,x,i,x,
COc1ccccc1CCC(=O)Nc1ccc2c(c1)CN(Cc1ccc(C)o1)CC2,30,-8,1,12,-2,-7,i,-10,
c1ccc(NN=C2c3ccccc3-c3ccccc32)cc1,x,-2,1,x,x,-7,x,11,
Cc1cc(C)nc(SCC(=O)N/N=C/c2cccn2-c2ccc(O)cc2)n1,7,0,-1,6,-9,9,i,x,
O=C1CNC(=S)N1C(CO)c1ccccc1 (stereo not given),-3,5,7,2,8,-18,i,6,
COc1ccc(C(=O)c2coc3ccc(O)c(CN4CCCCC4)c23)cc1,-6,-2,4,-8,5,-18,i,-20,
CC(=O)Nc1ccc(S(=O)(=O)NC2(C(F)(F)F)NC(=O)N(Cc3ccccc3)C2=O)cc1 (stereo not given),-8,-1,5,-6,4,-1,i,3,
OCCC1CN(Cc2cccc3nccnc23)CCN1Cc1ccc(F)c(F)c1 (stereo not given),3,0,2,-1,-11,x,i,-30,
SMILES,PABP polyA inh,MT1-MMP act inh,MT1-MMP act inh RFP,eIF4H inh,CSC inhib,UUG fidelity,Rce1 inhib,Env fusion inh,others
COc1ccc(/C=N/NC(=O)COc2cccc3ccccc23)c(C(=O)O)c1OC,0,0,9,-11,-9,6,i,-88,
CCOC(=O)N/N=C\c1ccc(OC(=O)c2ccco2)cc1,3,-2,2,-3,-2,-14,i,-2,
CCN(Cc1cnn(C)c1)Cc1nc(C(c2ccccc2)c2ccccc2)no1,-10,-4,-1,7,-15,-15,i,16,
CCOC(=O)NC(=O)c1cn(-c2ccc(OC)cc2)c(=O)[nH]c1=O,2,1,0,-9,x,x,i,11,
Cn1c(=O)c2c(ncn2Cc2cccc(Cl)c2)n(C)c1=O,3,5,-17,-7,3,-9,i,-1,
OCCC1CN(Cc2cccn2-c2ccccn2)CCN1C1CCCCC1 (stereo not given),4,2,6,0,11,x,i,-4,
CCC(CC)c1nc(C#N)c(NCc2ccccc2)o1,4,1,-5,-3,8,-10,i,x,
O=C(Cc1ccccc1)Nc1ccccc1C(=O)N1CCCCCC1,-2,3,5,-9,6,-39,i,13,
Cc1nnc(SCC(=O)c2ccccc2)n1Cc1ccccc1,2,-2,5,-4,-2,x,i,5,
CC1CCCC(NC(=O)c2ccc3c(c2)N(Cc2ccccc2)C(=O)CS3=O)C1C (stereo not given),-10,-1,1,-3,-8,-10,i,-3,
CC(=O)Nc1ccc(-c2nnc(SCc3ccccc3C#N)n2C)cc1,-7,3,4,-4,x,-10,i,13,
C/C(=N\NC(=O)CN1CCN(S(=O)(=O)c2ccc(C)cc2)CC1)c1cccnc1,-1,-1,4,7,2,-4,i,-8,
COc1ccc(N2CCc3c(C)nc4c(OC)cccc4c32)cc1,-6,-12,-14,-11,55,x,i,-40,
CNC(=S)N/N=C/c1ccc(N2CCOCC2)s1,u,-2,9,2,-8,x,i,24,
COc1cccc(CNC(=O)CCNC(=O)C2CCN(S(=O)(=O)c3ccc(F)cc3)CC2)c1,x,2,-3,x,-7,-13,i,4,
COc1cccc(N2CC(C(=O)Nc3nnc(SCC(=O)N4CCCC4)s3)CC2=O)c1 (stereo not given),3,-1,4,-10,-12,-19,i,x,
Cc1ccc(Oc2nc(-c3ccccc3)ncc2S(=O)(=O)c2ccc(C)cc2)cc1,-1,-2,1,-4,-2,-11,i,x,
COC(=O)c1nn(-c2cccc(Cl)c2)ccc1=O,6,0,4,4,0,x,i,-4,
CCCc1cc(C(=O)Nc2ccc(Cl)cn2)cs1,-10,-3,-6,2,-8,-48,i,-145,
O=[N+]([O-])C1C(c2ccccc2)=NOC1c1ccccc1O (stereo not given),-2,-4,1,-5,-8,-13,i,-8,
O=C(Cc1ccc(-n2c(=O)c3ccccc3n(Cc3cccc([N+](=O)[O-])c3)c2=O)cc1)NCC1CCCO1 (stereo not given),-24,x,x,0,-4,x,i,-10,
Cc1ccc(-c2c(C)n([O-])c3c([n+]2=O)CCCCC3)cc1,6,2,4,5,-3,x,i,-20,
CCCC(=O)Nc1nc(CC(=O)OCC)cs1,4,2,-1,-7,-11,x,i,8,
COc1ccc(CCNC(=O)Cn2nc(C)n3nc(-c4ccccc4)cc3c2=O)cc1OC,3,0,-4,-4,3,-23,i,6,
CCc1cc(=O)oc2cc(C)cc(OCC(=O)NCC(O)c3ccccc3)c12 (stereo not given),1,-1,-6,-3,-6,-14,i,-23,
Cc1ccc(OC(C)C(=O)Nc2ccc(F)cc2)c([N+](=O)[O-])n1 (stereo not given),x,-2,1,x,x,-16,x,-2,
Cc1cc2nc3c(nc2cc1C)CCCC3,0,0,3,-8,x,x,i,-9,
S=c1[nH]ncn1/N=C/c1ccc(N2CCOCC2)cc1,2,2,2,-1,-14,-61,i,-84,
CCN1C(=O)[C@@H]2[C@@H](c3ccc(-c4ccccc4)cc3)N3CCCC[C@@]3(C(=O)OC)[C@@H]2C1=O,x,-5,-1,x,27,-11,i,-3,

# Four entries from above, ordered by formula weight, low to high.
SMILES,PABP polyA inh,MT1-MMP act inh,MT1-MMP act inh RFP,eIF4H inh,CSC inhib,UUG fidelity,Rce1 inhib,Env fusion inh,others
CCCC(=O)Nc1nc(CC(=O)OCC)cs1,4,2,-1,-7,-11,x,i,8,
Cc1ccc(-c2c(C)n([O-])c3c([n+]2=O)CCCCC3)cc1,6,2,4,5,-3,x,i,-20,
Cc1nnc(SCC(=O)c2ccccc2)n1Cc1ccccc1,2,-2,5,-4,-2,x,i,5,
COc1cccc(CNC(=O)CCNC(=O)C2CCN(S(=O)(=O)c3ccc(F)cc3)CC2)c1,x,2,-3,x,-7,-13,i,4,

# An unsorted share of the library. About 2.9% of those tested had a hit in this group.
